# From PubChem
# Calb FLC: affects C. albicans growth with fluconazole; C. albicans CaCi-2 (fluconazole-resistant clinical isolate) + fluconazole, Alamar Blue growth, 48 h; growth inhibition, % (no concentration beside the values); 300,000 tested, 0.57% active; AID 1979;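 active = most replicates above 75%; inconclusive = exactly half above 75%; inactive = most below 75%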;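 note: all wells also contain fluconazole at 8 µg/ml as a sub-toxic cotreatment; 0% = median of DMSO wells and 100% = median of geldanamycin control wells; wells of about 8 µL received 7.5 nL stock; the first replicate is given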
# Ecoli rRNA inh: inhibitors of bacterial rRNA selective over humanized ribosomes; E. coli WT GFP vs humanized-ribosome RFP mutants, fluorescence, 24 h; active compounds read low; DMSO median 0, no signal -100; GFP signal change (wild-type ribosome), % (no concentration beside the values); 350,000 tested, 1.6% active; AID 720706;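 active = significant combined selectivity score with lowered wild-type GFP, culture density cut under 30%, mutant RFP and density less affected; inactive = any of these conditions unmet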; note: one replicate is shown; some compounds called inactive have numbers as strong as hits
# ALR H2O2 inh: blocks human ALR sulfhydryl oxidase activity | purified ALR, DTT oxidation, H2O2 HRP-luminol luminescence | P55789 | 290,000 tested, 3.8% active | AID 485317 | inhibition, % (no concentration beside the values);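 active = mean and each replicate at 75% or more; inconclusive = only one of the two met; inactive = neither met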;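 note: stock transfer was 7.5 nL into about 7.5 µL; 0% = neutral wells and 100% = wells with inactivated enzyme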
# Target sequence (P55789 whole entry, looked up): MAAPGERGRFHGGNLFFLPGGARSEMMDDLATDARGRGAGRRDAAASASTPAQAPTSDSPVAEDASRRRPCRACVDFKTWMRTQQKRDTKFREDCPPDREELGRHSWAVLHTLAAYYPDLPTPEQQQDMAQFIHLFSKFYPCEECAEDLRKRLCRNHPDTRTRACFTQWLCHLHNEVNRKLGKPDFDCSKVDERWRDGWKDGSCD
# FGF22 binding: FGF22 (human) thermal shift binding. 340,000 tested, 1.5% active. calls only at 9.99 µM. Q9HCT0. recombinant FGF22 thermal shift, SYPRO orange fluorescence; percent of sucrose octasulfate shift, DMSO zero. AID 651658;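 active = melting point raised past a set limit in the mean and every replicate; inconclusive = no clear call; three in four hits are not shown here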
# Target sequence (Q9HCT0 whole entry, looked up): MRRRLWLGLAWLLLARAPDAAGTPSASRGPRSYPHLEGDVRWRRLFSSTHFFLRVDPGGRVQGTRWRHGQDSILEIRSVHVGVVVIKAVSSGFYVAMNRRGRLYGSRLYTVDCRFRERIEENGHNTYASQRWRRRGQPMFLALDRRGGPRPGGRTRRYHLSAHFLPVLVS
# RanGTP-Imp inh: inhibitors of RanGTP-importin-beta interaction, primary screen, biochemical, FRET, CFP-Ran, YFP-importin-beta, homogeneous; cell-free CFP-Ran/YFP-importin-beta FRET ratio; inhibition, % (test concentration not listed); 300,000 tested, 1.1% active; AID 2216;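 active = most replicates above 15%; inconclusive = exactly half above 15%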;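 note: 0% = DMSO wells and 100% = Ran loaded with GDP instead of GTP; wells of about 40 µL received 100 nL stock; the first replicate is given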
# Beta cell apopt: beta cell apoptosis inhibition | AID 435005 | INS-1E cytokine-induced death, ATP luminescence, 48 h; percent of positive-control rescue, neutral wells zero | 300,000 tested, 0.8% active | protection from apoptosis, % (test concentration not listed);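 active = all replicates at 75% or more, or half of them and the mean; inconclusive = half reach 75% but not the mean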;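 note: 0% = cytokine-treated negative control wells and 100% = positive control rescue; higher means more ATP so stronger rescue from cytokine killing; wells of about 40 µL received 100 nL stock; the first replicate is given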
# T cruzi repl: T. cruzi replication inhibition. inhibition, % (concentration not given with the values). AID 1885. 300,000 tested, 1.4% active. T. cruzi beta-gal in NIH3T3, luminescence, 90 h;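 active = mean inhibition across valid replicates above about 55%, limit read from the data; inconclusive = mean below that limit but half or more replicates reach it; inactive = mean below it, under half of replicates reach it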;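 note: signal also drops with host cell toxicity which is not excluded here; 0% = plate median of DMSO wells and 100% = zero luminescence signal; higher percent means less beta-gal luminescence so fewer parasites; stock transfer was 50 nL into about 50 µL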
# MLL AF4-AF9 inh: inhibitors of human MLL-AF4/AF9 interaction. P42568. 350,000 tested, 0.47% active. AlphaScreen, biotin-AF4 peptide binding to FLAG-AF9. inhibition, % at 10 µM. AID 651704;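 active = every replicate reaching a set inhibition limit, whatever the replicate mean, cut at about 25% in these data; inconclusive = mean inhibition reaches that limit but some replicates miss it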;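 note: 0% = plate neutral control median and 100% = total signal loss; the record names both 10 and 1 µM as test concentration; the first replicate is given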
# Target sequence (P42568 whole entry, looked up): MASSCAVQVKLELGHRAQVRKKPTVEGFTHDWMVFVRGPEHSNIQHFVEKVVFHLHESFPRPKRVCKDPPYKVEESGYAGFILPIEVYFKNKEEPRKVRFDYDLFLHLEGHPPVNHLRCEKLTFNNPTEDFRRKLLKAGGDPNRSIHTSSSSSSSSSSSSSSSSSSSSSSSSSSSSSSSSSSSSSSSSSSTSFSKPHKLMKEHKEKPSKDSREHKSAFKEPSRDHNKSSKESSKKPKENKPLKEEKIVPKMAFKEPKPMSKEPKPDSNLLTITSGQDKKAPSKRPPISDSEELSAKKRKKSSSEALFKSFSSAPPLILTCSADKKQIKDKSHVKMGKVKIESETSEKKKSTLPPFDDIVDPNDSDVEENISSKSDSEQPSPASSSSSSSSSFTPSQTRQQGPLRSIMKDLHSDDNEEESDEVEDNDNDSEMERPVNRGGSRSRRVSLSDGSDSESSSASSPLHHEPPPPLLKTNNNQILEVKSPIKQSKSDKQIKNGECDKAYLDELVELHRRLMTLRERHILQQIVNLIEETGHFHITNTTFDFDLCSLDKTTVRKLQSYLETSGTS
# Ecoli rRNA inh OD600: also measured in Ecoli rRNA inh; calls as there; OD600 change, %; measured here: OD600 growth;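 optical density of the mix in the first replicate; 0 = DMSO median and -100 = no signal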
# Ecoli rRNA inh RFP: further read-out of Ecoli rRNA inh, marked with its call; RFP signal change, %; measured here: RFP humanized mutant strains;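 first replicate; 0 = DMSO median and -100 = no signal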
# * = called active by the depositor; i = inactive; ? = inconclusive; . = not tested or not shown; + = active, no number. An excerpt; rates above refer to the full screens.
SMILES	Calb FLC	Ecoli rRNA inh	Ecoli rRNA inh OD600	Ecoli rRNA inh RFP	ALR H2O2 inh	FGF22 binding	RanGTP-Imp inh	Beta cell apopt	T cruzi repl	MLL AF4-AF9 inh
CC(C(=O)N1CCc2ccccc21)N1CCN(S(=O)(=O)c2ccc(C(F)(F)F)cc2)CC1 (stereo not drawn)	.	-4	-3	2.3	-2	i	.	-5	.	1.8
NC(=O)C1CC(=O)N(c2ccc(OCc3ccc(Cl)cc3)cc2)C1 (stereo not drawn)	-4	8	7	0.6	3	i	-0.9	-1	-22	6.4
N#CCc1ccc(NS(=O)(=O)c2ccc(C3CCCCC3)cc2)cc1	-3	-10	3	6.8	-3	i	1.9	37	-6	-7.1
Cn1c(=O)c2[nH]c(-c3ccccc3Cl)c(O)c2n(C)c1=O	-10	6	4	-8.0	.	i	-102	-2	9	-7.0
CCCCn1c(N)c(N(CCC(C)C)C(=O)c2c(C)noc2C)c(=O)[nH]c1=O	.	9	1	1.1	-16	.	8.7	-7	-5	-0.5
COc1ccc2c(CC(=O)Nc3nccs3)coc2c1	2	-22	22	1.9	-3	i	2.8	-5	-27	0.0
O=C(CCC1CCCC1)NNC(=O)c1ccc(F)cc1	.	.	.	.	8	i	.	-4	.	1.8
O=C(NCCS(=O)(=O)N1CCN(Cc2ccccc2)CC1)c1ccc(F)cc1	-8	-1	-2	-1.2	2	i	-2.8	-3	0	2.6
COc1ccc(OC)c(S(=O)(=O)N2CCc3ccccc32)c1	-1	.	.	.	-3	.	1.7	.	-2	.
COc1ccc(C(=O)NCCCNC(=O)c2ccc(C)nc2)cc1	5	-5	-9	-1.3	.	i	6.4	-6	-5	0.9
Cc1nc(NS(=O)(=O)c2ccccc2)sc1C(=O)NN	24	-6	-10	2.2	11	i	3.1	1	0	-2.5
O=C1OCCN1S(=O)(=O)Nc1ccccc1	1	16	19	4.9	-3	i	0.5	-1	-7	-23
O=C(NNC(=O)c1ccco1)c1cccc(Br)c1	-2	2	3	-0.3	2	i	-0.1	5	4	-1.8
CC(=O)OCC1OC(OCc2cn(C[C@H]3CC[C@@H]([C@@H]4CC[C@H](Cn5cc(COC6OC(COC(C)=O)C(OC(C)=O)C(OC(C)=O)C6OC(C)=O)nn5)O4)O3)nn2)C(OC(C)=O)C(OC(C)=O)C1OC(C)=O (stereo partly drawn)	-14	10	2	6.7	-8	i	-0.1	7	-6	0.1
O=C(NCc1ccc(Cl)cc1)C1CCC(CNc2c(N3CCOCC3)c(=O)c2=O)CC1 (stereo not drawn)	0	2	4	-5.8	-2	i	1.3	1	-12	3.5
O=C(OCC1OC2C(Oc3nc(=O)ccn32)C1O)c1ccccc1 (stereo not drawn)	0	.	.	.	.	.	1.5	2	5	.
N/C(=N\OC(=O)Cc1cccs1)c1ccccc1	21	.	.	.	-4	.	-2.7	-3	7	.
CCN(C[C@H]1N[C@@](CC)(C(=O)OC)[C@H]2C(=O)N(Cc3ccccc3)C(=O)[C@@H]12)S(=O)(=O)c1ccc(C(F)(F)F)cc1	.	14	10	-2.0	17	i	.	14	.	-0.1
N#Cc1ccc(C(=O)OCC(=O)N2CCOCC2)cc1	7	1	16	-0.7	-9	i	3.7	.	-6	-2.9
COc1cc(Cc2ccc(N)c(OC)c2)ccc1N	0	-2	22	-1.3	98*	i	5.6	-8	9	-56
CC(=O)OCC1=C(C(=O)O)N2C(=O)C(NC(=O)CCn3nc(C)c(Cl)c3C)C2SC1 (stereo not drawn)	-6	19	-5	-1.6	-16	i	5.4	-3	-19	-3.3
Cn1c(CN2CCCCC2)nc2cc([N+](=O)[O-])ccc21	0	3	4	1.6	.	i	1.1	-5	-9	4.6
CO/N=C(/COc1ccc(F)cc1)c1ccc(OC)cc1	6	-1	-3	-2.3	-1	i	0.0	-6	-5	-1.5
NS(=O)(=O)c1cccc(NC(=O)CCSc2ccc(Cl)cc2)c1	6	.	.	.	73	.	19*	-22	1	.
Cc1ccc(Cl)cc1N1CCN(C(=O)c2ccc3nc[nH]c3c2)CC1	41	-45*	-10*	-12*	-1	i	0.6	-27	50	1.9

# A draw from above in order of formula weight, smallest number first:
SMILES	Calb FLC	Ecoli rRNA inh	Ecoli rRNA inh OD600	Ecoli rRNA inh RFP	ALR H2O2 inh	FGF22 binding	RanGTP-Imp inh	Beta cell apopt	T cruzi repl	MLL AF4-AF9 inh
Cc1nc(NS(=O)(=O)c2ccccc2)sc1C(=O)NN	24	-6	-10	2.2	11	i	3.1	1	0	-2.5
NC(=O)C1CC(=O)N(c2ccc(OCc3ccc(Cl)cc3)cc2)C1 (stereo not drawn)	-4	8	7	0.6	3	i	-0.9	-1	-22	6.4
CC(=O)OCC1OC(OCc2cn(C[C@H]3CC[C@@H]([C@@H]4CC[C@H](Cn5cc(COC6OC(COC(C)=O)C(OC(C)=O)C(OC(C)=O)C6OC(C)=O)nn5)O4)O3)nn2)C(OC(C)=O)C(OC(C)=O)C1OC(C)=O (stereo partly drawn)	-14	10	2	6.7	-8	i	-0.1	7	-6	0.1

# Next part.
SMILES	Calb FLC	Ecoli rRNA inh	Ecoli rRNA inh OD600	Ecoli rRNA inh RFP	ALR H2O2 inh	FGF22 binding	RanGTP-Imp inh	Beta cell apopt	T cruzi repl	MLL AF4-AF9 inh
COc1ccccc1NC(=O)COc1ccc2ccccc2c1	7	-31*	-22*	1.5*	16	i	?	.	5	-2.8
COc1ccc(S(=O)(=O)N2CCCC(C(=O)NCc3cccnc3)C2)cc1 (stereo not drawn)	1	2	1	-3.8	0	i	-1.3	-6	-5	-1.8
Cc1nnc(SCc2nnc(-c3cccs3)o2)s1	-1	14	2	1.7	.	i	175*	-2	-2	0.1
O=C(Nc1cccc(-c2nc3ccccc3s2)c1)c1ccc2c(c1)OCO2	-7	5	2	4.6	-2	i	-5.1	-4	12	-5.2
CCOCCCNC(=S)Nc1cc(C)cc(C)c1	-3	.	.	.	2	.	-1.6	-8	-7	.
Cc1cc2cc(C)c(NCCNC(=O)c3ccccc3F)nc2cc1C	-10	-17	-16	4.1	8	i	0.0	2	0	-1.2
CN1CCN(C(=O)CNC(=O)C23CC4CC(CC(C4)C2)C3)CC1	.	7	2	2.9	-13	i	.	-2	.	0.0
NC(=S)N/N=C/c1ccc2c(c1)OCCO2	7	8	-3	-1.3	.	i	3.6	-4	0	-2.0
O=C(NNc1ccccc1F)C1CCC1	-8	23	10	5.3	4	i	-13	-10	.	-1.0
COc1ccc(OC)c(-c2cc(C3CCN(c4ncccc4[N+](=O)[O-])CC3)[nH]n2)c1	8	.	.	.	-9	.	2.1	-8	33	.
O=C(O)c1cc(S(=O)(=O)N2CCCCCC2)c(Cl)cc1Cl	-9	-1	-9	2.8	-4	i	-0.1	.	-3	0.3
Fc1ccc(C2=CC(c3ccco3)n3nnnc3N2)cc1 (stereo not drawn)	24	.	.	.	0	i	-7.2	-3	-4	-1.7
CN1CCN(CC#CCn2c3ccccc3c3ccccc32)CC1	3	-34*	-22*	-6.6*	-8	i	-1.6	1	35	-43
CC(=O)N1Cc2ccccc2CC1C(=O)N1CCN(c2ccccc2)CC1 (stereo not drawn)	-5	21	17	1.3	15	i	3.1	0	-1	-1.3
Oc1ccc(/C=N/NC(=S)Nc2cccnc2)cc1	-1	-3	0	-0.2	99*	+	-0.4	3	2	?
COC(=O)c1ccccc1NC(=O)NCCc1ccccc1OC	22	-5	-11	-1.9	-1	.	-2.9	2	-14	-3.7
Cc1cc(-c2nn(C)c(=O)c3ccccc23)cc(C)c1O	-2	1	4	-1.2	-4	i	?	-1	-6	18
C=CCn1c(SCC(=O)NC2CCCCC2)nnc1C1CCCCC1	3	.	.	.	-11	.	-2.6	-3	18	.
O=C(NCc1ccco1)[C@@H]1CCCN1C(=O)c1cccs1	-5	.	.	.	8	.	-0.9	.	-2	.
Cc1cc(C)c2[nH]c(=O)c(CN(Cc3cccs3)C(=S)NCc3ccco3)cc2c1	-6	.	.	.	2	.	?	7	16	.
O=C(Nc1ccc(N2CCOCC2)cc1)c1cc(-c2ccncc2)nc2ccccc12	5	-2	-6	-2.2	-17	i	1.4	-1	3	3.4
Cc1nn(CC#N)c(=O)n1-c1ccccc1	2	.	.	.	0	.	-2.0	-6	-3	.
CCOC(=O)c1c(N)sc2c1CCCC2	15	.	.	.	68	.	7.7	-2	-9	.
CCCC(=Nc1ccccc1)C1=C(O)C(C(=O)OC)C(C)(C)CC1=O (stereo not drawn)	4	6	0	0.7	-9	i	-9.5	.	4	1.8
CCc1nc2nc(C)c(NS(=O)(=O)c3ccc(C4CCCCC4)cc3)c(=O)n2[nH]1	-4	-4	-38	0.1	.	i	5.6	-5	-17	-2.3
CSc1ccccc1NC(=O)CN(C)C(=O)C1CCN(C(=O)Nc2ccccc2)CC1	-12	2	-1	-2.5	1	i	2.2	-1	2	-6.1
COc1ccc(C(=O)N2CCOC2CNC(=O)C(=O)NCc2ccc3c(c2)OCO3)cc1 (stereo not drawn)	1	2	0	4.6	-2	i	2.7	-5	-5	-2.1
NNc1nc2ccc(F)cc2s1	-9	.	.	.	99*	.	-0.6	-5	3	.
Cc1cccc(C(=O)NC2CCN(C(=S)NCc3ccco3)CC2)c1	0	0	-5	2.9	-7	i	-0.2	3	-13	12
C#C[C@]1(O)CC[C@H]2[C@@H]3CCc4cc(O)ccc4[C@H]3CC[C@@]21C	.	-54	-78	-16	.	i	5.1	-13	-1	-3.5
O=C(Nc1cccc2ncccc12)c1ccc(OCc2ccccc2)cc1	2	21	11	-0.3	-3	i	1.5	-9	0	-2.0
CC1CN(CC(=O)Nc2nc3ccccc3s2)CC(C)O1 (stereo not drawn)	-30	-15*	7.7*	4.8*	-9	i	2.1	4	-10	-3.4
CC(C)COc1ccc(C(=O)Nc2ccc([N+](=O)[O-])cc2)cc1	15	.	.	.	0	.	0.7	-2	3	.
CCCOc1ccc(/C=C/C(=O)NC2CCCCC2)cc1OC	-7	4	5	-2.0	-1	i	1.9	8	-10	0.9
Cc1cc(C)cc(C(=O)N(c2ccccn2)C(C)c2ccco2)c1 (stereo not drawn)	-8	.	.	.	3	.	1.3	.	2	.
CCN(CC)S(=O)(=O)c1ccc(C(=O)NC(=S)N(CCO)Cc2ccccc2)cc1	5	2	4	3.0	-8	i	3.3	0	-1	2.6
COC(=O)COc1ccc(Cl)cc1C1Nc2ccccc2C(=O)N1c1ccc(OC)cc1 (stereo not drawn)	-6	-25*	5.5*	-3.0*	-3	i	-2.8	-4	22	-17
O=C(O)c1cn(Cc2ccccc2Cl)c2ccc(S(=O)(=O)N3CCOCC3)cc2c1=O	-1	-20	-22	-1.9	-2	i	2.1	-2	7	-2.9
CCCCNc1nc2c(c(=O)n(C)c(=O)n2C)n1CCC	-2	-4	4	0.3	8	i	5.9	5	-18	4.2
CCc1ccccc1NC(=O)c1ccc(Cn2cc([N+](=O)[O-])cn2)cc1	-1	.	.	.	.	.	-1.6	0	-14	.
CC(CCc1ccco1)NC(=O)Nc1cccc(F)c1 (stereo not drawn)	?	.	.	.	-2	.	-0.2	1	-6	.
Cc1cc(OCC(=O)NC2CC(C)(C)NC(C)(C)C2)c2c(C)cc(=O)oc2c1	-7	5	9	-0.3	23	i	1.3	2	8	0.2
